VDR inhibitor – vitamin D3 receptor (human) inhibition. P11473. VDR-SRC2-3 peptide fluorescence polarization, 2 h. Potency, µM, for inactives: max response, negative = inhibition, usual class: inhibitors. hit rate 0.93% among 400,000. AID 504847; active = well fitted inhibition curve with a large enough effect; inconclusive = small, poorly fitted or top-dose-only effect, or another doubt; inactive = no such curve, though single readings can be large or run the other way; note: series mostly up to about 120 µM
Target sequence (P11473 whole entry, looked up): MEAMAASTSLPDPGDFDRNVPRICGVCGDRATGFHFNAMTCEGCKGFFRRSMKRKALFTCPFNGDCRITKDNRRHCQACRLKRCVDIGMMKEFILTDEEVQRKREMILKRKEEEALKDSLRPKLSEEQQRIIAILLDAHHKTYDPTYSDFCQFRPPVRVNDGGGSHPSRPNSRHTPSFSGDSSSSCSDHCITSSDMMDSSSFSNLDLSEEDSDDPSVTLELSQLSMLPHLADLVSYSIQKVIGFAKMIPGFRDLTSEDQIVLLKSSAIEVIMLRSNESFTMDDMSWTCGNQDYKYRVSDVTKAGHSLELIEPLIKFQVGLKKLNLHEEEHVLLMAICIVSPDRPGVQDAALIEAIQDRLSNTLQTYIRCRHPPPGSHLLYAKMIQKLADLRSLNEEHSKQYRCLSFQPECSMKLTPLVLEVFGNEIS
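Compounds are added to VDR with labelled SRC2-3 coactivator peptide and held 2 h at room temperature. Inhibition of the VDR–peptide interaction is then read as a change in fluorescence polarization.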
* marks the source's active call; other numbers are inactive results; ? = inconclusive; & = joins results of further samples. % is set by controls: 0 for no effect and ±100 for the full control effect; potency is the fitted concentration of half-maximal effect. Only part of the results is shown; count on the stated rates, not on these rows.

VDR inhibitor,smiles
11.6%,N#CCCN1CCN(S(=O)(=O)c2ccc(C#N)cc2)CC1
28.3%,COc1ccccc1OCC(=O)Nc1ccc(C(N)=O)cc1
-5.4%,CCOC(=O)CSc1ncccn1
-12.3%,Cc1cc(=O)oc2cc(OC(C)C(=O)N3CCOCC3)ccc12 (stereo unspecified)
5.0%,CCn1c(=N)c(C(=O)NC2CCCC2)cc2c(=O)n3cc(C)ccc3nc21
-1.8%,O=C(/C=C/c1ccc(OCCCF)cc1)NCc1cccc(Cl)c1
-7.0%&11.2%,CN1CCN(C(=O)c2ccc3c(c2)N(Cc2cccc(Cl)c2)C(=O)c2ccccc2S3(=O)=O)CC1
16.0%,O=C(CN1CCN(C(=O)C2CCCO2)CC1)Nc1cc(Cl)ccc1Cl (stereo unspecified)
4.1%,O=C(CCn1c(=O)c2cccn2c2cccnc21)N1CCN(c2ccccc2F)CC1
9.7%,C=CCn1c(=O)c2ccccc2n2c(SCC(=O)NCC)nnc12
-12.2%,CCOC(=O)c1cccc(NC(=O)COc2ccc3c(C)cc(=O)oc3c2)c1
2.7%,NC(=O)CN1CCOCCOCCOCCOCCOCC1
-16.4%,c1ccc(-n2nnc3ccccc32)cc1
-5.5%,COc1ccc(CCNc2c([N+](=O)[O-])ncn2C)cc1OC
20.5%,COc1cc(OC)cc(C(=O)Nc2ccccc2C(=O)N2CCCC2)c1

(list continues)
VDR inhibitor,smiles
-9.3%,COc1ccc(NC(=O)CN(C)CC(=O)NCC(=O)Nc2ccc(F)cc2)cc1
-2.5%,CCOc1cc(C2/C(=C(\O)c3cc(C)ccc3C)C(=O)C(=O)N2CCN(C)C)ccc1O (stereo unspecified)
3.5%,O=C(CCCc1ccccc1)NC1CCSC1=O (stereo unspecified)
-2.4%,O=C(Nc1ccccc1)Nc1cccc(-c2nnco2)c1
-8.1%,CCc1ccccc1NC(=O)Cn1c(=O)n(CCCS(=O)(=O)C2CCCCC2)c(=O)c2ccccc21
2.5%,Cc1ccc(S(=O)(=O)Nc2nc(C)c(C(=O)NNS(=O)(=O)c3ccccc3)s2)cc1
14.6%,COc1ccc(-c2nc3scc(CCNC(=O)Cc4ccc(F)cc4)n3n2)cc1
15.9%,COCCNC(=O)CN(Cc1ccccc1)C(=O)CCC(=O)Nc1nccs1
?,COC(=O)c1sc(-c2ccc(C(C)(C)C)cc2)cc1NC(=O)c1ccccc1C(=O)O
11.3%,COc1ccc(CN(C(=O)CN2C(=O)NC3(CCC(C)CC3)C2=O)C(C)Cc2cccs2)cc1 (stereo unspecified)
6.3%,C=CCN(C(=O)c1cccc(C(F)(F)F)c1)C1(C(=O)Nc2ccccc2)CCN(C(C)C)CC1
8.3%,COC(=O)C1=C(C)C(c2ccc(OC)cc2OC)NC(=O)N1 (stereo unspecified)
89.1µM*,CCc1cccc(CC)c1NC(=O)CSc1nnc(C2CC2)n1C
1.1%,NS(=O)(=O)c1ccc(NC(=O)COC(=O)Cc2ccc(Cl)cc2)cc1
0.3%,O=c1[nH]c(NCCO)nc2c1C1(CCCC1)Cc1ccccc1-2

Next compounds follow.
VDR inhibitor,smiles
7.7%,CCC1CCCCN1C(=O)c1noc(C(C)C)c1[N+](=O)[O-] (stereo unspecified)
-6.6%,COc1cc(/C=C(/C#N)c2ccc(F)cc2)ccc1Oc1ccc([N+](=O)[O-])cn1
3.0%,Cc1ccc2oc(C(=O)N3CCN(C)C[C@@H]3C(C)C)c(C)c2c1
-3.8%,CC1CCN(C(=O)c2c(NC(=O)c3ccccc3F)sc3c2CCC(C(C)(C)C)C3)CC1 (stereo unspecified)
7.0%,Cc1ccccc1CN1CCC(CNC(=O)C2CCCN(c3ncnc4c3nc3n4CCCCC3)C2)CC1 (stereo unspecified)
0.0%,Cc1cccc(C(=O)Nc2nnc(Cc3c[nH]c4ccccc34)s2)c1
-4.9%,CCN(CCCNC(=O)CN(C)S(=O)(=O)c1cccc2nsnc12)c1ccccc1
-10.1%,Cc1ccc(C(=O)N2CCCC2)cc1Br
?,COC(=O)c1cc(O)cc(OC)c1Oc1cc(C)cc(O)c1C(=O)O
0.4%,Cc1ccc2nc(CSc3nnc4ccccn34)cc(=O)n2c1
-12.2%,O=[N+]([O-])c1cc(S(=O)(=O)N2CCCC2)ccc1NCCCN1CCOCC1
-0.9%,COc1ccc(OC)c2[nH]c(=O)c(CCNC(=O)c3cc4ccccc4o3)cc12
15.8%,O=C(NCc1ccco1)c1ccc(=O)oc1
-12.2%,Cc1ccc(NC(=O)CN2CCc3cc4c(cc3C2)OCCCO4)cc1
-22.0%,S=c1[nH]nc(-c2ccncc2)n1/N=C/C(Cl)=C\c1ccccc1

Going on with the list.
VDR inhibitor,smiles
-0.5%,Cc1cc2oc(C(=O)Nc3ccc(S(=O)(=O)Nc4onc(C)c4C)cc3)cc(=O)c2cc1C
-12.5%,CN=C1S/C(=C\c2ccc(SC)cc2)C(=O)N1C
15.7%,Cc1nnc(NC(=O)Oc2ccccc2)s1
-12.1%,O=C(NCCC(=O)N1CCN(c2ccccn2)CC1)c1ccc(Cl)cc1
-6.7%,CNC(=O)N(O)C1N(NC(=O)Nc2ccccc2)C(=S)SC1(C)C (stereo unspecified)
-7.5%,Cc1cccc(N(C(=O)CNC(=O)c2cccs2)C(C(=O)NC2CCCC2)c2cccnc2)c1 (stereo unspecified)
-1.9%,COc1cccc(-c2nc(N3CCCCC3)c3ccccc3n2)c1O
-5.7%,CCOC(=O)C1CCCN(S(=O)(=O)c2cccs2)C1 (stereo unspecified)
1.3%,COc1ccc(CCCNC(=O)C2CCC(=O)N(CCc3cccc(F)c3)C2)cc1 (stereo unspecified)
-7.2%,CC1CCN(CCC(=O)NN)CC1
-15.9%,N#CCC(=O)Nc1ccc(C(=O)N2CCN(S(=O)(=O)c3ccc4ccccc4c3)CC2)cc1
-23.8%,CCOC(=O)C1CCN(C(=O)c2c(C)oc3c2C(=O)c2ccccc2C3=O)CC1
-11.1%,COc1cccc(NC(=O)C2CC(=O)OC23CCOC(C)(C)C3)c1 (stereo unspecified)
0.2%,COc1ccc(NC2=Nc3ccccc3N3C2=Nc2c(c(C)nn2-c2ccc(C)cc2)C3c2cccnc2)cc1 (stereo unspecified)
-7.3%,Cc1cccc2sc(NC(=O)C3CCCN(S(=O)(=O)c4cccc5nonc45)C3)nc12 (stereo unspecified)

VDR inhibitor, entries above that show a hit.
VDR inhibitor,smiles
89.1µM*,CCc1cccc(CC)c1NC(=O)CSc1nnc(C2CC2)n1C

Later entries.
VDR inhibitor,smiles
17.6%,CCOc1ccc(S(=O)(=O)NCCC(=O)OCN2C(=O)c3ccccc3C2=O)cc1
-15.8%,COc1ccc(/C(O)=C/Sc2nnc(Cc3ccccc3)o2)cc1
22.9%,CCc1cccc(NC(=O)C(CC)n2nc(C)c3sc4ccccc4c3c2=O)c1 (stereo unspecified)
14.5%,CCOc1ccc(NC(=O)c2cc3ccccc3cc2OC)cc1
1.2%,CCN(CC)c1ccc(NC(=O)Nc2cccc(C(C)=O)c2)cc1
-13.0%,COc1cccc(C(=O)Nc2ccc(C(=O)NCC3CCCO3)cc2)c1 (stereo unspecified)
-0.5%,CC(Sc1nnc(C2CC2)n1C1CC1)C(=O)NCc1cccs1 (stereo unspecified)
6.1%,Cc1ccc(/C=C/C(=O)Nc2cc(S(=O)(=O)N3CCOCC3)ccc2N2CCOCC2)cc1
-5.2%,O=C(NC1CCCCC1)c1ccc(N2CCCC2=O)cc1
-13.4%,COC(=O)c1cn(C(=O)c2ccc(C)cc2)c2ccccc12
-11.6%,CCOc1ccc2c(c1)c(N=Nc1cccc(C(=O)O)c1)c(O)n2C
-1.8%,O=C(Nc1cccc(NC(=O)c2ccccc2Cl)c1)c1ccco1
?,CC(=O)N1c2c(cc(Br)cc2S(=O)(=O)N2CCN(C(=O)c3ccco3)CC2)CC1C (stereo unspecified)
15.4%,Cc1nc(NC(=O)C2CCCC2)sc1Cc1ccc2c(c1)OCO2
5.1%,CC(=O)Nc1nnc(SCc2cc(=O)c3cc(C)ccc3[nH]2)s1

(further entries)
VDR inhibitor,smiles
4.2%,CC1=CC(=O)C2=C(C)CC[C@@H]3[C@@H](OC(=O)[C@H]3C)[C@H]12
6.4%,Cc1cc2nc(C)n(CCCNC(=O)Nc3cccc4ccccc34)c2cc1C
4.7%,COC(=O)c1cc(NCc2c(F)cccc2Cl)ccc1N1CCOCC1
-4.9%,O=C(NC(C(=O)O)c1ccccc1)c1ccc(S(=O)(=O)N2CCOCC2)cc1 (stereo unspecified)
-1.0%,O=S(=O)(Nc1ccc(Cc2ccncc2)cc1)c1ccc(Cl)s1
-17.7%,Cc1ccc(C(=O)n2cnc3ccccc32)cc1C
12.3%,O=C(N/C=C/c1ccccc1)Nc1ccc(Cl)cc1
-2.8%,COc1ccc2c(c1)O[C@@H](c1cccc(C(F)(F)F)c1)[C@H](OC(=O)NCc1ccc3c(c1)OCO3)C2=O
8.0%,COc1ccc(NC(=O)C2=CC(c3ccc4c(c3)OCO4)=NS(=O)(=O)N2C)cc1OC
9.2%,COc1ccccc1NS(=O)(=O)c1cccc(NC(=O)Nc2ccc(Cl)cc2)c1
-4.8%,Cc1cccc(NC(=O)CSc2nc3nc(C)cc(C)n3n2)c1
13.9%,O=C(Nc1ccc2c(c1)OCCO2)C1CCCN(c2ncccn2)C1 (stereo unspecified)
3.1%,O=C(Oc1c(-c2ccccc2)c(=O)n2c3c(cccc13)CC2)c1ccc(Cl)cc1
-14.9%,O=C(NC(=S)NNS(=O)(=O)c1ccc(Cl)cc1)c1cccnc1
-16.0%,Nc1ccccc1C(=O)N1CCC(O)(c2ccc(Cl)cc2)CC1

Next section:
VDR inhibitor,smiles
-14.3%,CCN1CCN(C(=S)Nc2ccsc2C(=O)OC)CC1
4.0%,CCOc1ccc(NC(=O)C2CCCN(S(=O)(=O)c3c(C)nn(C)c3C)C2)cc1 (stereo unspecified)
-0.7%,Cc1ccc2cc3c(nc2c1)N(Cc1ccco1)CC3
8.8%,COc1cccc(OC)c1C(=O)NCCc1csc(-c2ccc(Cl)cc2)n1
-8.4%,CCNCc1ccc(OCc2cccs2)c(OCC)c1
-7.9%,CCOC(=O)N1CCC(NC(=O)CSCc2nc(-c3ccc(C)cc3)oc2C)CC1
-8.4%,CC1C2Cn3c(nc4ccccc43)C1N(C(C)C)O2 (stereo unspecified)
-8.4%,Cc1cccc(NC(=O)CSc2nccn2Cc2ccco2)c1
-20.8%,CCc1ccc(S(=O)(=O)NCCc2cn3ccccc3n2)s1
-2.2%,COCCNC(=O)CN1c2ccccc2CC1C (stereo unspecified)
-1.2%,Cc1ccc(S(=O)(=O)N2CCN(C(=O)c3cc(-c4ccc(Br)cc4)n[nH]3)CC2)c(C)c1
-11.2%,COc1ccc(NC(=O)Cn2c3ccccc3c3nc4n(c(=O)c32)CCS4)cc1
0.0%,O=C(c1ccncc1)N1CCC2(CC1)CCN(C(c1ccccc1)c1ccccc1)CC2
-25.2%,COc1ccc(N(CC(=O)NCc2ccccc2Cl)S(=O)(=O)c2c(C)[nH]c(=O)[nH]c2=O)cc1
-7.6%,Cc1nc2sc(C(=O)NCc3ccc(Cl)cc3)c(NC(=O)c3ccccc3)c2c(C)c1C

In the list so far, 7 have an NH in an aromatic ring.
VDR inhibitor,smiles
0.3%,O=c1[nH]c(NCCO)nc2c1C1(CCCC1)Cc1ccccc1-2
0.0%,Cc1cccc(C(=O)Nc2nnc(Cc3c[nH]c4ccccc34)s2)c1
-0.9%,COc1ccc(OC)c2[nH]c(=O)c(CCNC(=O)c3cc4ccccc4o3)cc12
-22.0%,S=c1[nH]nc(-c2ccncc2)n1/N=C/C(Cl)=C\c1ccccc1
5.1%,CC(=O)Nc1nnc(SCc2cc(=O)c3cc(C)ccc3[nH]2)s1
-1.2%,Cc1ccc(S(=O)(=O)N2CCN(C(=O)c3cc(-c4ccc(Br)cc4)n[nH]3)CC2)c(C)c1
-25.2%,COc1ccc(N(CC(=O)NCc2ccccc2Cl)S(=O)(=O)c2c(C)[nH]c(=O)[nH]c2=O)cc1

Carrying on.
VDR inhibitor,smiles
-11.0%,O=C(CN1CCN(Cc2ccccc2)CC1)N/N=C/C=C/c1ccco1
5.3%,COC(=O)Cc1c(O)ccn(Cc2ccc(Cl)c(Cl)c2)c1=O
23.3%,CCCCCC(=O)Nc1ccc2oc(-c3ccncc3)nc2c1
-16.2%,CC(=O)NCCc1nc2ccccc2[nH]1
8.5%,COc1ccc2oc(=O)c(-c3nc(-c4cccs4)no3)cc2c1
5.3%,COCCCNC(=O)CSc1nc2cc3c(cc2c(=O)n1CCCCCC(=O)NCc1ccc(OC)cc1)OCO3
9.4%,CC1CCCCC1NC(=O)COC(=O)c1ccccn1 (stereo unspecified)
17.3%,COc1ccc(C(C(=O)NC(C)(C)C)N(C(=O)CNC(=O)c2cccs2)c2cccnc2)cc1OC (stereo unspecified)
8.8%,O=C(Cn1cnc2c(nnn2Cc2ccccc2F)c1=O)N1CCN(c2ccccc2)CC1
-7.9%,Cc1ccc(OCCNC(=O)C2CC(=O)N(c3ccc(C)cc3)C2)cc1 (stereo unspecified)
7.7%,COc1ccccc1CNC(=O)c1cccc(S(=O)(=O)N(C)c2ccccc2)c1
4.4%,Cc1ccc(C)c(NC(=O)c2cnn(-c3ccc(F)cc3F)c2C2CCNCC2)c1
1.4%,COc1ccc(C(=O)N2CCc3cc(OC)c(OC)cc3C2COc2ccccc2OC)cc1 (stereo unspecified)
-3.3%,CN(CCCCN1CCOCC1)Cc1nc(-c2ccc3c(c2)OCO3)no1
12.7%,COCC(=O)Nc1c(C(=O)Nc2ccccc2OC)oc2ccccc12

Continuation.
VDR inhibitor,smiles
-5.2%,COc1ccc(CNc2nc(NCc3ccc(OC)cc3)n(S(C)(=O)=O)n2)cc1
-11.1%,Cc1[nH]n(C)c(=O)c1N=Nc1ccc(S(C)(=O)=O)cc1
24.1%,Cc1c(Cl)cccc1S(=O)(=O)N1CCC(C(=O)NNC(=O)C2CC2)CC1
-13.2%,Cc1ccc(C(=O)NC(C)C(c2cccs2)N2CCCC2)s1 (stereo unspecified)
-5.3%,CCCN1C(=O)c2ccccc2NC1c1ccc(Br)cc1 (stereo unspecified)
5.3%,CC1(C)C(=O)Nc2ccccc2N1C(=O)CSc1ncccn1

Screens as filed in PubChem.
